Screening data as filed in PubChem.
AID504770 = E. coli YBA685 growth inhibition, screen for V. cholerae RctB inhibitors | 130,000 tested, 0.27% active | z-score (concentration not given with the values) | AID 504770 | E. coli YBA685 rctB-dependent plasmid, OD600 growth, 3 h; hits give low values;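 active = z-score under -2 on both plates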;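 also: wells of about 30 µL received 100 nL stock; score is relative to mean and SD of the test wells; the first replicate is given; strong numbers were not always called active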
Ba CapD inh = inhibitors of Bacillus anthracis CapD enzyme; z-score (test concentration not listed); purified CapD enzyme, fluorescence intensity read-out; hits give low values; some hits fall short of the stated cut; 140,000 tested, 0.23% active;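 active = z-score under -4 in either of two replicates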;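 also: stock transfer was 100 nL into about 40 µL; score is relative to mean and spread of the plate; one replicate is shown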
An asterisk follows results filed as active; i = inactive; · = no result given; & = joins results of further samples. An excerpt (hit frequency here may not be typical).

The first 3 compounds, to show the layout:
SMILES	AID504770	Ba CapD inh
COc1cccc(OC)c1C(=O)Nc1nnc(C2CCCCC2)s1	0.35	0.06
Cc1nn(C(=O)c2ccc(F)cc2)c(N)c1-c1ccccc1	-0.35	-0.43
CCCCn1c(CN2C(=O)NC3(CCCCC3C)C2=O)nc2cc(S(=O)(=O)N3CCOCC3)ccc21 (stereo not given)	2.1	·

Main list, repeating the preview:
SMILES	AID504770	Ba CapD inh
COc1cccc(OC)c1C(=O)Nc1nnc(C2CCCCC2)s1	0.35	0.06
Cc1nn(C(=O)c2ccc(F)cc2)c(N)c1-c1ccccc1	-0.35	-0.43
CCCCn1c(CN2C(=O)NC3(CCCCC3C)C2=O)nc2cc(S(=O)(=O)N3CCOCC3)ccc21 (stereo not given)	2.1	·
CC(=O)n1c2c(c3ccccc31)OC(N)=C(C#N)C2c1cccc(Cl)c1 (stereo not given)	·	2.7
Nc1ccc(F)cc1S(=O)(=O)Nc1ccc(Br)cc1	-0.15	-0.14
Clc1ccc(-c2nnc3ccccn23)cc1	0.5	3.1
COC(=O)c1ccccc1SC(CC(=O)c1cccnc1)c1ccc(F)cc1 (stereo not given)	·	0.6
Nc1ccc(Oc2ccc(C(=O)O)cc2)cc1	0.4	0.99
COc1ccc(S(=O)(=O)N2CCN(Cc3ccc4ccccc4n3)CC2)cc1	·	-0.24
CC1CCCCN1S(=O)(=O)c1ccccc1C(=O)N1CCCCCC1 (stereo not given)	1.9	·
S=C1OC(c2ccccc2)=C/C1=C\N1CCCCC1	-0.1	-0.07
Cc1ccc(-n2c(C)cc(C(=O)COc3ccc(C#N)cc3)c2C)cc1	-0.55	·
COc1ccc2c(C)cc(N3CC(C)OC(C)C3)nc2c1 (stereo not given)	1.8	24
O=C(CN1C(=O)c2ccccc2C1=O)NCC1COC2(CCCCC2)O1 (stereo not given)	-1.1	·
CCN(CCO)C(=O)NC1CC(=O)N(c2ccc(C)cc2)C1 (stereo not given)	-0.05	·
Cc1ccsc1CCNS(=O)(=O)c1c(C(=O)N2CCCC2)c(C)n(C)c1C	0.35	-0.11
CCCc1[nH]n(-c2ccc(F)cc2)c(=O)c1C=Nc1cc(C(=O)OC)ccc1C(=O)OC	·	0.58
COc1ccc(-n2ncc3c(N4CCc5ccccc54)ncnc32)cc1	-0.05	2.9
COc1ccc(CCNC(=O)CC(c2ccccc2)c2cc(C)ccc2O)cc1OC (stereo not given)	0.05	-0.59
S=c1n(CN2CCC3(CC2)OCCO3)nc(-c2ccc(Cl)cc2)n1-c1ccccc1	·	1.6
Cc1ccccc1OCC1Cn2c(nc3c2c(=O)[nH]c(=O)n3C)O1 (stereo not given)	2.2	-0.26
O=S(=O)(/N=C(\OC1CCCCC1)c1ccccc1)c1ccccc1	-0.75	4.6
O=C1CCCC1c1cc(NS(=O)(=O)c2ccc(Cl)cc2)ccc1O (stereo not given)	0.25	-0.38
O=C(Nc1ccccc1)OCc1cc2cccc3c2n(c1=O)CCC3	·	-0.27
COC(=O)c1sccc1NC(=O)C1CC1	0.1	0.51

Remaining list, next part.
SMILES	AID504770	Ba CapD inh
CCOC(=O)c1sc(SCc2ccc(Cl)cc2)c(S(=O)(=O)C(C)C)c1N	·	-0.67
CN(C)CCNC(=O)c1ccc(-n2c(=S)[nH]c3ccccc3c2=O)cc1	-0.5	·
CC(C)CNC(N)=O	-0.2	·
c1ccc2oc(SCc3nc4ccccc4s3)nc2c1	0.15	·
CC1CCN(C(=O)COc2ccc(Br)cc2)CC1	0.1	0.29
CS(=O)(=O)c1ccc(-n2cc(-c3cnccn3)cn2)cc1	·	11
O=C(NCCc1ccncc1)c1ccc(Cl)c(Cl)c1	·	-0.08
O=C(c1nnsc1S(=O)(=O)c1ccc(Cl)cc1)N1CCCCC1	·	-0.08
COc1ccc(CNCc2cccs2)c(OC)c1OC	-0.85	·
CCOC(=O)C1=C(c2ccccc2)N=C2SCC(=O)N2C1c1ccccc1OC (stereo not given)	·	-0.67
CC(=O)OCC(=O)[C@@]1(O)[C@H](C)CC2C3CCC4=CC(=O)C=C[C@]4(C)[C@@]3(F)[C@@H](O)C[C@@]21C (stereo not given in full)	0.3	0.17
O=S(=O)(c1ccc2ccccc2c1)N1c2ccccc2-c2ccccc2S1(=O)=O	·	-0.3
CC(=O)NCC(=O)OCc1ccc(C(C)(C)C)cc1	0	·
CC1CC(CC(C)C(=O)Nc2cc(Cl)ccc2Cl)C(=O)O1 (stereo not given)	-0.7	0.28
CC(C)C(=O)Nc1ccc(NCc2cccs2)cc1	-0.25	·
CN(C)c1cc(NCc2ccco2)c2c3c(onc13)-c1ccccc1C2=O	0.45	-0.8
O=C(CCc1ccccc1)NNc1cc(N2CCCCC2)nc(N2CCCCC2)n1	0.85	·
O=C1CSC(c2cccnc2)N1c1ccc(C2CCCCC2)cc1 (stereo not given)	·	0.67
CCn1c(NN)nc2sc3c(c2c1=O)CC(C)(C)OC3	0.95	·
NS(=O)(=O)c1ccc2[nH]c3c(c2c1)CCCC3	-0.95	-0.29
CCOC(=O)c1ccc(N=Cc2c(O)n(CC)c(=O)[nH]c2=O)cc1	0.6	0.38
CCCNc1c(NC(=O)C2CCC(C)CC2)c(=O)oc2ccccc12 (stereo not given)	0.05	0.6
Cn1cnnc1SCC(=O)NCc1ccccc1	-0.6	·
COC(=O)c1sccc1Cl	·	0.11
O=C(Nc1ccccc1Cl)c1ccc(F)c(S(=O)(=O)N2CCN(c3cccc(Cl)c3)CC2)c1	·	-0.67

3 neighbouring compounds already listed, quoted:
SMILES	AID504770	Ba CapD inh
CCOC(=O)c1sc(SCc2ccc(Cl)cc2)c(S(=O)(=O)C(C)C)c1N	·	-0.67
CN(C)CCNC(=O)c1ccc(-n2c(=S)[nH]c3ccccc3c2=O)cc1	-0.5	·
CC(C)CNC(N)=O	-0.2	·

Later entries.
SMILES	AID504770	Ba CapD inh
CC(C)NC(=O)C1CCN(C(=O)c2ccc(-n3ccc4ccccc43)s2)CC1	-0.3	6.2
Cc1ccc2c(c1)N(C(=O)/C=C/c1ccccc1)C(C)(C)CC2(C)c1ccccc1 (stereo not given)	·	-0.095
COc1ccccc1CC(=O)O/N=C/c1ccc2c(c1)OCO2	·	0.14
COc1cccc(CN(C)Cc2cc(=O)oc3cc(O)c(Cl)cc23)c1	0.35	·
Cc1cc(C(=O)NNC(=O)OCCc2ccccc2Cl)n[nH]1	·	0.59
N#Cc1cc2c(ccc3ccccc32)oc1=O	-0.5	·
CC(C)(C)CC(C)(C)NC(=O)C1CCCO1 (stereo not given)	-0.45	-0.41
CC(=O)Oc1c(Sc2c(F)c(F)c(F)c(F)c2F)c(C)nn1C(C)(C)C	·	1.3
CCN(CC)C(=O)CSc1nc(N)c(C#N)c(CC(C)C)c1C#N	0.4	12
N=C(N=Nc1c(O)n(Cc2ccccc2)c2ccccc12)SCC(=O)Nc1ccccc1	0.35	·
Cc1nc(NCC2CCCO2)nc2c1C(=O)CC(C)(C)C2 (stereo not given)	0.2	·
CCN(CC)C(=O)c1cc2ccccc2oc1=O	0.55	2.9
COc1ccc(CNC(=O)c2cccn3c(=O)c4c5c(sc4nc23)CCCC5)cc1	-0.1	0.17
CC1(C)OC(=O)C(=Cc2ccc(F)cc2)C(=O)O1	-0.8	-0.57
N#Cc1ccc(CS/C(N)=N/N)cc1	-0.4	-0.21
C=C(CC(=O)N1CCOCC1)C(=O)N1CCOCC1	2.5	0.01
O=C(COc1ccc(Cl)cc1)NCCN1CCCCC1	-0.6	·
N#C/C(=C\c1ccc(Cl)c(Cl)c1)c1ccc(NC(N)=O)cc1	-0.1	22
Fc1cccc(Oc2ncnc3scc(-c4ccccc4)c23)c1	0.8	-0.12
CCN(C(=O)C1C(=O)NC2(C)CC1c1ccccc1O2)c1ccccc1 (stereo not given)	·	-0.045
CCC(Sc1nc2n[nH]c(C)c2c(=N)n1-c1ccccc1C)C(=O)N1CCCC1 (stereo not given)	-0.4	-0.26
CN(CCc1ccccn1)Cc1cccc(F)c1	0.1	-0.27
CCCn1cc(S(=O)(=O)c2ccc(OC)cc2)c(=O)c2cc(F)c(N3CCN(C)CC3)cc21	1.3	33
CCOc1ccc(CCN=C2CC(c3ccccc3)CC(=O)/C2=C(/O)CC)cc1OCC (stereo not given)	-0.9	-0.3
Cc1ccc2cc3cc(C(=O)NCc4cccs4)sc3nc2c1	0.25	0.47

The list goes on.
SMILES	AID504770	Ba CapD inh
CC(C)(C)c1ccc(C(=O)N2CCCC(C(=O)NN3S(=O)(=O)c4ccccc4S3(=O)=O)C2)cc1 (stereo not given)	·	-0.33
CN(C(=O)CN1N=NC2C(=O)N(c3ccc(Br)cc3)C(=O)C21)c1ccccc1 (stereo not given)	-0.6	-0.23
CNC(=O)c1c[nH]c2ccc(S(=O)(=O)Nc3ccc(C(C)C)cc3)cc2c1=O	-0.35	-0.3
CON(C)C(=O)CCC(=O)N1CCN(C(=O)c2cc(N3CCOCC3)nc(N3CCOCC3)n2)CC1	·	-0.72
O=C(C1CC(=O)N(c2ccccc2)C1)N(Cc1ccccc1)Cc1ccccc1 (stereo not given)	-0.15	-2.7
Cc1ccc(Cn2cnc3c(cnn3C)c2=O)cc1	-1.1	0.48
Cc1ccc(NCc2cccc3c2CN(CC2CCCO2)C3)cc1 (stereo not given)	0.6	0.89
O=C1CC(c2ccc(OC(F)(F)F)cc2)Sc2ccccc2N1 (stereo not given)	·	-0.3
CC12CCC3c4ccc(OCc5ccccc5)cc4CCC3C1C[C@@H](O)[C@@H]2O (stereo not given in full)	·	-0.37
Cc1cc(C(=O)N2N=C(C3CC3)CC2(O)C(F)F)cs1 (stereo not given)	0.1	0.055
OC(CN1CCN(c2ccccc2F)CC1)Cn1nnnc1-c1ccccc1 (stereo not given)	-0.8	-0.14
Cc1ccc(-n2cc(-c3ccccc3)c3c(NCCCN4CCCC4=O)ncnc32)cc1Cl	·	-0.095
CCc1nn(CC(=O)N2CCN(C)CC2)c(=O)c2cccn12	0.5	-1
Cc1ccc(Nc2nc(N)nc(CSc3nccn3C)n2)cc1	-1.1	·
CC(=O)Nc1sc2c(c1C#N)CCCCC2	-0.5	0.26
Cc1cc(C)cc(NC(=O)C(Cc2c[nH]c3ccccc23)NC(=O)OCC(C)C)c1 (stereo not given)	·	-0.96
COc1ccccc1Nc1nc(C)cs1	-1&0.2	-0.11&0.36
COc1ccc(Cc2cnc(N)s2)cc1	-0.2	-0.9
CCc1nnc(NC(=O)c2ccc3c(c2)S(=O)(=O)N=C2CCCCCN23)s1	-0.4	·
Cc1noc(C)c1S(=O)(=O)N1Cc2ccccc2CC1C(=O)Nc1ccc(Cl)cc1 (stereo not given)	-0.95	·
C=CCSc1nc(C)cc(C)c1C#N	-0.35	0.3
COc1cc(OC)c2c(C(=O)O)cc(-c3ccc(O)c(OC)c3)nc2c1	-0.9	0.17
CC1CC(C)CN(S(=O)(=O)c2ccc3c(c2)CCN3C(=O)CCC(=O)O)C1 (stereo not given)	-0.5	-0.14
COc1ccc(CNc2nc(SCc3cc(=O)n4cc(Cl)ccc4n3)nc3ccccc23)cc1	·	-0.18
O=C(O)CCC(=O)N1CCc2c([nH]c3ccccc23)C1C(F)(F)F (stereo not given)	·	-0.91

(list continues)
SMILES	AID504770	Ba CapD inh
Cc1nnc(Sc2cc(C(=O)NCCCN3CCOCC3)c3ccccc3n2)s1	0.25	1.6
N#Cc1c(N2CCCC2=O)sc2c1CCCC2	0.05	0.21
FC(F)(F)COc1nc(OCC(F)(F)F)nc(N(c2ccccc2)c2ccccc2)n1	-0.65	·
O=S(=O)(c1ccccc1)c1nc(Cc2ccccc2)oc1NCc1ccccc1	·	0.04
COc1ccc(NC(=O)Cn2c(=O)oc3cc(S(=O)(=O)NCc4ccccc4)ccc32)cc1OC	0.35	0.17
COc1ccc(C(=O)/C(C#N)=C/N(C)C)cc1	-1.7	-1.3
c1ccc(-c2cc3c(N4CCCC4)ncnc3s2)cc1	-1.1	73
CCOC(=O)c1cc(CC)sc1NC(=O)CCN1CCCCC1	-0.55	0.2
O=C(CCCn1c(=O)c2cccn2c2cccnc21)Nc1ccccc1F	-0.7	5.3
O=C(O)CCOc1ccccc1F	1.4	·
CC(C)NC(=O)CSc1nc(-c2ccco2)cc(C(F)(F)F)n1	-1.2	·
O=C(O)c1ccccc1C(=O)Nc1cc(C(F)(F)F)ccc1N1CCCC1	1.1	-0.64
N#Cc1cnc(-c2ccncc2)nc1N	·	0.56
CCSc1nnc(NC(=O)c2ccc(-c3ccccc3)cc2)s1	-0.1	i
CCc1ccc(-n2c(=S)sc3c(=O)[nH]c(SCC(=O)N4CCCC4)nc32)cc1	·	-0.76
O=C(c1ccccc1)c1ccc(OCC(O)CNCC2CCCO2)cc1 (stereo not given)	-0.6	·
O=C1CC(C2CCCC=C2N2CCOCC2)C(=O)N1Cc1ccccc1 (stereo not given)	-0.65	-0.11
O=C(Oc1cccc(Br)c1)C1CCCCC1	0.15	0.91
CC(=O)Oc1c(C)cc(O)c2ccccc12	-0.4	8.3
O=C(CN1CCC(Cc2ccccc2)CC1)c1c[nH]c(C(=O)N2CCCC2)c1	1.2	·
O=C(CN1C(=O)C2CC=CCC2C1=O)NCCc1ccccc1 (stereo not given)	0.7	·

A different layout for some results above:
FC(F)(F)COc1nc(OCC(F)(F)F)nc(N(c2ccccc2)c2ccccc2)n1
  AID504770 = -0.65
  Ba CapD inh = ·
O=S(=O)(c1ccccc1)c1nc(Cc2ccccc2)oc1NCc1ccccc1
  AID504770 = ·
  Ba CapD inh = 0.04
COc1ccc(NC(=O)Cn2c(=O)oc3cc(S(=O)(=O)NCc4ccccc4)ccc32)cc1OC
  AID504770 = 0.35
  Ba CapD inh = 0.17
COc1ccc(C(=O)/C(C#N)=C/N(C)C)cc1
  AID504770 = -1.7
  Ba CapD inh = -1.3
